# Source: PubChem BioAssay (several laboratories)
# GALR2 agonist = GALR2 (human) receptor agonism; AID 803; activation, %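 (tested at 5 µM)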; actives 0.48% (n = 140,000); GALR2-expressing cells, agonist activation read-out; O43603;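 active = above mean plus 3 SD of all compounds, about 5% in these data, not always enough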;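 note: 0% = vehicle buffer wells and 100% = reference agonist at full effect; tested in CHO reporter cells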
# Target sequence (O43603 whole entry, looked up): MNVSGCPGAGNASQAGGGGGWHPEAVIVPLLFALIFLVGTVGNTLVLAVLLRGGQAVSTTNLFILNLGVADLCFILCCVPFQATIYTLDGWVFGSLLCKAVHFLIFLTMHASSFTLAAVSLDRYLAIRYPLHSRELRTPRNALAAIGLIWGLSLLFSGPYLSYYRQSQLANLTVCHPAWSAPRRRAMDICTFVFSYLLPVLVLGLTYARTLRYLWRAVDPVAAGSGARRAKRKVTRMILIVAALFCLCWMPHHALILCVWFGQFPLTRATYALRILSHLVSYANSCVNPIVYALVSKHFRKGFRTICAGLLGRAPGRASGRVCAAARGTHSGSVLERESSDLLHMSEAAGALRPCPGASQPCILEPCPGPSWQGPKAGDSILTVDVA
# Insulin prom inh = TRM-6 insulin promoter activity inhibition; actives 0.9% (n = 130,000); TRM-6 cells (human fetal islet line), insulin promoter-eGFP reporter, imaging; reporter expression induced with tamoxifen; inhibition, % at 2 µM;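 active = inhibition above the mean plus 3 SD, with well images judged a real hit on visual review, cut at about 60% in these data, passing the limit was not always enough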
# PKD1 kinase inh = PKD1 (human) kinase inhibition | Q15139 | PKD1 kinase fluorescence polarization assay | inhibition, %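 (about 10 µM by stock and volumes)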 | actives 0.056% (n = 200,000) | AID 797;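 active = inhibition of 50% or more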;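 note: controls were vehicle for no effect and a reference inhibitor for full effect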
# HSV augment = increases HSV replication in cells; actives 0.005% (n = 220,000); maximum fold increase; HSV replication augmentation in cells, fold increase;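 active = peak rise of 1.5-fold or more in the series; tested in PC3 cells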;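 note: first round at 10 µM; read as green reporter fluorescence; hits show the peak of a series up to 25 µM; 1 = signal of infected wells without compound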
# RGS16-Gao = RGS16-Galphao interaction regulator (human); bead-based flow cytometry RGS16-Galphao binding, fluorescence; actives lie on both sides; binding response (% of control), % at 10 µM; AID 1441; actives 0.38% (n = 220,000);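 active = below 25% or above 175%, edge rows of some plates excepted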;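 note: Galphao activated by GDP with aluminum fluoride before binding; 100% = wells without compound and 0% = beads without RGS; some results beyond the cut were filed as inactive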
# Target sequence (O15492 whole entry, looked up): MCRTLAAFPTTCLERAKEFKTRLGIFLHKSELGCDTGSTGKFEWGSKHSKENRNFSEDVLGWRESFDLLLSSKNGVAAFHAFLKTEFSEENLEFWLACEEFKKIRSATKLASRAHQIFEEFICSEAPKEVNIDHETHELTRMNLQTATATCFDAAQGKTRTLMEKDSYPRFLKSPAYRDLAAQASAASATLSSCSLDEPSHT
# Target sequence (P09471 whole entry, looked up): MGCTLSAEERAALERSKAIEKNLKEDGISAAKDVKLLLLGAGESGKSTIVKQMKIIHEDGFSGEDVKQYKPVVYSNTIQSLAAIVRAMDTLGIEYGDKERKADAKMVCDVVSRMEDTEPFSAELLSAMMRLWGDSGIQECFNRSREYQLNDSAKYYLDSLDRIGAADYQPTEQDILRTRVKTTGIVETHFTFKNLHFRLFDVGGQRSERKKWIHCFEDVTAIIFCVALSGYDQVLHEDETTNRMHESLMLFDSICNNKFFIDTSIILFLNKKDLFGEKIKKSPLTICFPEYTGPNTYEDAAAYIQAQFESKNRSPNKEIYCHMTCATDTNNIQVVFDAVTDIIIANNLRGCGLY
# Insulin prom inh cell count = also measured in Insulin prom inh; calls as there; normalized cell count, %; measured here: cell count, toxicity; reference of the scale not given here;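 cells exposed to compound for 48 h; stained nuclei by imaging scaled within each plate; lower means fewer cells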
# HSV augment primary fold = recorded beside HSV augment, whose call it bears; fold increase; compound at 10 µM; measured here: primary screen fold increase 10 uM; tested in PC3 cells;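 GFP signal in the first replicate; 1 = infected wells without compound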
# An asterisk follows results filed as active; i = inactive; / = no result given. The order is random; about 1.3% have a hit in one of these screens.
# The first 20 records, to show the layout:
SMILES,GALR2 agonist,Insulin prom inh,Insulin prom inh cell count,PKD1 kinase inh,HSV augment,HSV augment primary fold,RGS16-Gao
Cc1cc(NC(=O)CCC(=O)N(Cc2ccco2)C(C(=O)NCC2CCCO2)c2ccncc2)no1 (stereo unspecified),/,/,/,74*,i,0.81,98
COC(=O)Cc1csc(NC(=O)CSc2nnc3ccccn23)n1,/,/,/,0,i,0.85,100
Cc1ccc(C(=O)N/C(=C\c2ccccc2)C(=O)OCc2ccccc2)cc1,-0.4,/,/,3,i,0.96,101
Cc1ccc(N2C(=O)[C@@H]3[C@H](C2=O)C2c4ccccc4C=CN2[C@@H]3C(=O)c2ccco2)c(C)c1 (stereo partly specified),-0.6,18,73,4,i,1.3,/
C=CCn1c(=N)c(C(=O)NCCCOC)cc2c(=O)n3cccc(C)c3nc21,4.6,8,66,-8,i,1,102
CCOC(=O)N=Nc1c(O)n(CC(=O)OC)c2ccccc12,/,/,/,-3,i,0.97,105
COC(=O)c1ccc2c(c1)N(C)CCS2,-1.3,/,/,-4,i,1.1,103
Cc1csc(=NC(=O)c2ccccc2)n1C,-1.5,50,53,3,i,1.1,71
CC(O)(c1ccccc1)C(c1ccccc1)C1CCCCN1 (stereo unspecified),/,/,/,/,i,1,101
CC1(C)CC(=O)C2=C(C1)NC(=O)CC2C(=O)NCc1ccc(F)cc1 (stereo unspecified),-0.2,67,68,-4,i,1.2,61
Cn1c(=O)c2c(nc(SCC(=O)N3CCCc4ccccc43)n2C)n(C)c1=O,0.7,16,182,-5,/,/,/
CCC1Sc2ccccc2N(CC(=O)NCc2ccccc2OC)C1=O (stereo unspecified),-2.7,-14,195,8,i,0.91,104
C=CCn1c(-c2ccccc2)cc(SC)c(C#N)c1=O,/,0,97,1,i,0.99,106
CC(=O)c1cccc(NC(=O)N2CCCC2C(=O)Nc2ccccc2C)c1 (stereo unspecified),0.9,-12,126,14,/,/,99
CCN(CC)Cc1cc(CCNC(=O)c2ccc(Cl)cc2)ccc1O,-1.3,-3,82,3,i,1.2,105
Cc1cc(N/N=C/c2cccc(F)c2)nc(NCc2ccccc2)n1,/,/,/,/,i,1.1,105
COc1ccc(OC(=O)CN2C(=O)C3C4CCC(C4)C3C2=O)cc1 (stereo unspecified),-0.2,48,48,10,i,1,116
Fc1ccc(N2CCN(Cc3cn[nH]c3-c3ccccc3)CC2)cc1,/,/,/,/,i,1.1,95
CC(=O)N(c1ccc(C)cc1)c1nc(C)cc(C)c1C#N,/,/,/,/,i,0.97,110
CCOC(=O)c1cc2c(ccn2C)n1CC(=O)N1CCN(c2ccc(F)cc2)CC1,-1.4,-8,139,-15,i,1,95

# The whole of this part, repeating the preview:
SMILES,GALR2 agonist,Insulin prom inh,Insulin prom inh cell count,PKD1 kinase inh,HSV augment,HSV augment primary fold,RGS16-Gao
Cc1cc(NC(=O)CCC(=O)N(Cc2ccco2)C(C(=O)NCC2CCCO2)c2ccncc2)no1 (stereo unspecified),/,/,/,74*,i,0.81,98
COC(=O)Cc1csc(NC(=O)CSc2nnc3ccccn23)n1,/,/,/,0,i,0.85,100
Cc1ccc(C(=O)N/C(=C\c2ccccc2)C(=O)OCc2ccccc2)cc1,-0.4,/,/,3,i,0.96,101
Cc1ccc(N2C(=O)[C@@H]3[C@H](C2=O)C2c4ccccc4C=CN2[C@@H]3C(=O)c2ccco2)c(C)c1 (stereo partly specified),-0.6,18,73,4,i,1.3,/
C=CCn1c(=N)c(C(=O)NCCCOC)cc2c(=O)n3cccc(C)c3nc21,4.6,8,66,-8,i,1,102
CCOC(=O)N=Nc1c(O)n(CC(=O)OC)c2ccccc12,/,/,/,-3,i,0.97,105
COC(=O)c1ccc2c(c1)N(C)CCS2,-1.3,/,/,-4,i,1.1,103
Cc1csc(=NC(=O)c2ccccc2)n1C,-1.5,50,53,3,i,1.1,71
CC(O)(c1ccccc1)C(c1ccccc1)C1CCCCN1 (stereo unspecified),/,/,/,/,i,1,101
CC1(C)CC(=O)C2=C(C1)NC(=O)CC2C(=O)NCc1ccc(F)cc1 (stereo unspecified),-0.2,67,68,-4,i,1.2,61
Cn1c(=O)c2c(nc(SCC(=O)N3CCCc4ccccc43)n2C)n(C)c1=O,0.7,16,182,-5,/,/,/
CCC1Sc2ccccc2N(CC(=O)NCc2ccccc2OC)C1=O (stereo unspecified),-2.7,-14,195,8,i,0.91,104
C=CCn1c(-c2ccccc2)cc(SC)c(C#N)c1=O,/,0,97,1,i,0.99,106
CC(=O)c1cccc(NC(=O)N2CCCC2C(=O)Nc2ccccc2C)c1 (stereo unspecified),0.9,-12,126,14,/,/,99
CCN(CC)Cc1cc(CCNC(=O)c2ccc(Cl)cc2)ccc1O,-1.3,-3,82,3,i,1.2,105
Cc1cc(N/N=C/c2cccc(F)c2)nc(NCc2ccccc2)n1,/,/,/,/,i,1.1,105
COc1ccc(OC(=O)CN2C(=O)C3C4CCC(C4)C3C2=O)cc1 (stereo unspecified),-0.2,48,48,10,i,1,116
Fc1ccc(N2CCN(Cc3cn[nH]c3-c3ccccc3)CC2)cc1,/,/,/,/,i,1.1,95
CC(=O)N(c1ccc(C)cc1)c1nc(C)cc(C)c1C#N,/,/,/,/,i,0.97,110
CCOC(=O)c1cc2c(ccn2C)n1CC(=O)N1CCN(c2ccc(F)cc2)CC1,-1.4,-8,139,-15,i,1,95

# Fetched by compound from the entries so far, 3 records:
SMILES,GALR2 agonist,Insulin prom inh,Insulin prom inh cell count,PKD1 kinase inh,HSV augment,HSV augment primary fold,RGS16-Gao
CC(=O)c1cccc(NC(=O)N2CCCC2C(=O)Nc2ccccc2C)c1 (stereo unspecified),0.9,-12,126,14,/,/,99
CCOC(=O)N=Nc1c(O)n(CC(=O)OC)c2ccccc12,/,/,/,-3,i,0.97,105
CC(O)(c1ccccc1)C(c1ccccc1)C1CCCCN1 (stereo unspecified),/,/,/,/,i,1,101

# (continued)
SMILES,GALR2 agonist,Insulin prom inh,Insulin prom inh cell count,PKD1 kinase inh,HSV augment,HSV augment primary fold,RGS16-Gao
S=C(NCc1ccco1)N1CCN(Cc2ccc(Cl)cc2Cl)CC1,-1.9,4,115,-6,i,0.94,104
Cc1cc(F)c(F)c(C(=O)N2C(C)CCCC2C)c1Cl (stereo unspecified),/,-111,84,-3,i,1,100
C=CCNc1nc2c3ccccc3n(C(C)=O)c2s1,0.4,64,182,3,i,1.1,52
Cc1ccccc1NC(=O)c1sc(Cl)nc1-c1ccccc1,-1.1,-37,143,-4,i,0.94,102
C=C(C)C(=O)Nc1cccc(C2=NOC3(C2)C[C@H](C(N)=O)N(C(=O)c2ccccc2)C3)c1 (stereo partly specified),/,/,/,/,i,0.99,95
C/C(=N\NC(=O)c1cc2ccccc2cc1O)c1cc2ccccc2o1,/,/,/,/,i,1,102
O=C1N(c2ccccc2)C2CS(=O)(=O)CC2N1c1ccc(Br)cc1 (stereo unspecified),-1.7,-65,91,19,i,1,102
CCOC(=O)C(NC(=O)c1ccccc1Cl)(Nc1ccc(C(F)(F)F)cc1)C(F)(F)F (stereo unspecified),-1.2,10,60,-2,i,1.1,101
CC(C)c1ccc(C2NC(=O)CCC2[N+](=O)[O-])cc1 (stereo unspecified),/,/,/,-2,i,0.87,99
COC(=O)c1ccc(SCC(=O)NC2CCCCC2)c([N+](=O)[O-])c1,-1.0,-21,117,-14,i,1,106
Cc1onc(-c2c(F)cccc2Cl)c1C(=O)OCC(=O)NC(c1ccccc1)c1ccccc1,-0.4,-53,110,-4,i,1.1,97
CC(=O)c1cc2c(cc1NC(=O)CSc1nc3ccccc3o1)OCO2,-0.2,0,116,-3,i,0.98,103
Cn1c(NC(=O)COc2ccccc2)cc(=O)n(C)c1=O,-0.5,14,93,-1,i,0.88,95
C=CCN1C(=O)C(O)(CC(=O)c2ccc(OC)cc2OC)c2cc(Br)ccc21 (stereo unspecified),-2.0,-37,54,-3,i,0.87,105
Cc1ccc(S(=O)(=O)n2c(=O)oc3ccccc32)cc1,/,/,/,2,i,0.93,106
CC(=O)OCC(=O)[C@@]1(O)[C@H](C)C[C@H]2[C@@H]3CCC4=CC(=O)C=C[C@]4(C)[C@@]3(F)[C@@H](O)C[C@@]21C,-0.6,13,82,0,i,0.78,/
Cc1ccc(OC(=O)COc2ccccc2C)c(-n2nc3ccccc3n2)c1,-1.4,33,123,-12,i,0.82,102
CCCC1(CCC)NC(=O)N(CC(=O)c2cc(C)n(-c3ccc4c(c3)OCO4)c2C)C1=O,-1.2,/,/,-3,i,1,81
CCN1CCN(C(=O)c2ccccc2Nc2ccc(SC(F)F)cc2)CC1,/,47,94,1,i,0.99,103
Cc1cc(CNC(=O)COc2ccc([N+](=O)[O-])cc2)c2ccccc2n1,/,58,139,1,i,0.81,109
O=C(O)C1CC(=O)N(Cc2cccnc2)C1 (stereo unspecified),-0.5,/,/,10,i,0.9,99
COC(=O)c1[nH]c2ccccc2c1NC(=O)CCN1CCN(C2CCCCC2)CC1,0.8,/,/,3,i,0.79,105
COc1cc(CNCCN2CCOCC2)ccc1OCC(=O)NC(C)(C)C,/,/,/,8,i,1,100
CC(C)Oc1ccccc1OCCCCn1cnc2ccccc2c1=O,/,/,/,-4,i,1,94
CCCOc1ccc(OC(=O)c2ccc(Br)o2)cc1,-1.6,9,93,9,i,0.78,93
Cc1ccccc1-c1nc(CN2CCC(C(=O)NC3CCN(Cc4ccccc4)CC3)CC2)c(C)o1,0.1,/,/,6,i,1,/
Cc1ccc(C2SCCN2C(=O)c2ccc([N+](=O)[O-])cc2)cc1 (stereo unspecified),-1.2,-39,153,-3,i,1,98
CC(=O)c1cccc(NC(=S)NCCC2=CCCCC2)c1,-1.7,/,/,-3,i,0.89,62
CCOC(=O)C1=NNC2(c3ccc(Cl)cc3)C(=O)N(c3ccc(C)cc3)C(=O)C12 (stereo unspecified),-1.2,/,/,-3,i,1.1,100
Cc1cccc(S(=O)(=O)C(C#N)c2nc3ccccc3nc2N2CCCC2)c1 (stereo unspecified),1.7,-36,101,5,i,1.2,100
COCCn1c(=NC(=O)c2ccc3c(c2)OCCO3)sc2cc(S(N)(=O)=O)ccc21,/,/,/,1,i,0.69,98
O=C(NC1CCCCCC1)C1c2ccccc2C(=O)N1Cc1cccnc1 (stereo unspecified),-2.7,24,100,-4,i,0.99,93
COc1ccc(C(=O)Nc2ccccc2C(=O)NC(C(=O)NCc2ccco2)C(C)C)cc1 (stereo unspecified),-0.2,/,/,-6,i,0.67,90
COc1ccc(CNC(=O)c2cccnc2Sc2ccc(C)c(C)c2)cc1,-0.8,-40,169,-5,i,0.83,101
CCOc1ccc(-n2cnc3c(=O)[nH]c(N)nc32)cc1,/,/,/,/,i,0.99,106
CCOc1cc(/C=N/NC(=O)c2cc(-c3cccnc3)nc3ccccc23)ccc1O,/,/,/,-7,i,0.84,94
CC(C(=O)NC(C)(C)C)N1C(=O)c2cccc3cccc(c23)C1=O (stereo unspecified),/,38,54,0,i,0.9,99
Cc1ccccc1/C=C/c1nc2ccccc2c(=O)n1Cc1ccccc1,-0.8,-40,104,1,i,0.98,95
COc1cc(/C=C/C(=O)O)cc(S(=O)(=O)NCCO)c1OC,0.1,-15,119,4,i,1,62
O=C(c1ccccn1)N(c1ccccc1)C1(C(=O)NC2CCCCC2)CCCCC1,/,-73,89,0,i,1.2,102
CC(Oc1ccccc1)c1ccnn1S(C)(=O)=O (stereo unspecified),-0.6,27,108,-2,i,1,96
O=C1CN(c2ccccc2F)C(=O)CN1c1ccccc1F,-1.8,-412,63,0,i,1.3,97
O=C(NCc1cn2ccccc2n1)c1ccc(Br)o1,-3.9,/,/,-13,i,1.1,106
COCCCNC(=O)CCCC(=O)NCCCOC,-1.9,-196,66,-5,i,1.1,103
COc1ccc(COc2cc(-c3cccc(OC)c3)nc3ccc(N)cc23)cc1,-1.0,-120,4,-3,i,0.64,113
Cc1ccc([N+](=O)[O-])cc1NC(=S)NC(=O)c1ccco1,0.2,/,/,1,i,0.94,100
Cc1cc(C(=O)NNc2ccc(F)cc2)no1,/,/,/,/,i,1.1,104
O=[N+]([O-])c1ccc(S(=O)(=O)NCCN2CCOCC2)cc1,/,5,43,-5,i,0.77,115
